MbtI inh = inhibitors of Mycobacterium tuberculosis siderophore enzyme MbtI | P9WFX0 | purified MbtI enzyme, fluorescence intensity read-out | inhibition, %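 (about 17 µg/mL by stock and volumes)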 | 100,000 compounds, 0.89% hits;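 active = above 50% in both replicates, above 80% if mildly self-fluorescent; inactive = the rest, strongly fluorescent compounds included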;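 note: 0% = mean of negative and 100% = mean of positive controls; one replicate is shown; some compounds called inactive have numbers as strong as hits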
Target sequence (P9WFX0 whole entry, looked up): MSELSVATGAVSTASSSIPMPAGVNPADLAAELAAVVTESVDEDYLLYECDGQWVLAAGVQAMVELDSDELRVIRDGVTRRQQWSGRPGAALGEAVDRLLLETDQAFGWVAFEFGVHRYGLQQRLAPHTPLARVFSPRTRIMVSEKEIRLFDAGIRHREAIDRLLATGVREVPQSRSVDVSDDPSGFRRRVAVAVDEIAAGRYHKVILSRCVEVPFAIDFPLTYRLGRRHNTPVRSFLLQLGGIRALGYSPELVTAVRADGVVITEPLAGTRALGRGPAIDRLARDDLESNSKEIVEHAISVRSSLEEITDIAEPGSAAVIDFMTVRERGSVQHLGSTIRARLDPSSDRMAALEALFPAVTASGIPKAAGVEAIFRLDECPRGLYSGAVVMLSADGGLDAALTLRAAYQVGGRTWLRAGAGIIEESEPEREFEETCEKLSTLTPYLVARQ
Mtb MenB inh = Mtb MenB enzyme inhibition | 100,000 compounds, 0.43% hits | MenB enzyme assay, absorbance read-out; some hits fall short of the stated cut | P9WNP5 | inhibition, %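 (about 12 µg/mL by stock and volumes)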 | AID 540299;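 active = mean of two replicates above 30%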;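 note: 0% = no compound and 100% = wells with inactive enzyme; the first replicate is given; strong numbers were not always called active; inactives centre near -10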
Target sequence (P9WNP5 whole entry, looked up): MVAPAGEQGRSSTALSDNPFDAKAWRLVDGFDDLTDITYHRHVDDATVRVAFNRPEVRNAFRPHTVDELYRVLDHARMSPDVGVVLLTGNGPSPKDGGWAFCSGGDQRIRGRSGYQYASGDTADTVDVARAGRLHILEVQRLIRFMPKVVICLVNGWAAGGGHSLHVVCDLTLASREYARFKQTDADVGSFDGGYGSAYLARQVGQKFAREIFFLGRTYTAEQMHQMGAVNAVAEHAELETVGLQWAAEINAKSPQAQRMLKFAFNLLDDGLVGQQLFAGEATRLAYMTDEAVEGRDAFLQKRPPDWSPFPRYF
PV pol inh = inhibitors of poliovirus RNA polymerase binding and polymerization; P03300; poliovirus polymerase elongation, fluorescence polarization; stronger effect = lower value; % elongation, % (compound at 16.7 µg/mL); 150,000 compounds, 0.66% hits; in the data active = % elongation below about 90%; note: some results filed as inactive read as strong as hits
PV pol inh intensity = further read-out of PV pol inh, marked with its call; % elongation; measured here: total intensity read-out; formula for this scale not given here;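 total fluorescence in place of polarization; lower means less elongation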
* hit, by the source's call; nt = not tested or not shown; & = joins results of further samples.

SMILES	MbtI inh	Mtb MenB inh	PV pol inh	PV pol inh intensity
c1cc2c(cc1-c1nn[nH]n1)OCO2	-2	-21	101	105
Cc1ccc(CN(C)C(=O)c2ccc(S(=O)(=O)N3CCCCC3)cc2)o1	8	-8	104	105
Cc1cn(S(=O)(=O)c2ccc(F)cc2)cn1	7	-11	103	107
CCOc1ccc(N=c2scc(-c3ccco3)n2/N=C/c2c[nH]c3ccccc23)cc1	-10	-21	108	118
N#CC1=C(N)n2ncnc2NC1c1ccc(F)cc1 (stereo not given)	14	-12	103	108
COc1ccc(C2(O)CCN(CC(=O)NC(C)C)CC2)cc1	-3	-2	101	104
COc1cc2nc(CSc3ccc(Cl)cc3)n(CC#N)c(=O)c2cc1OC	26	-18	105	100
CCn1c(SCC(=O)OCC(=O)Nc2ccc3ccccc3c2)nnc1-c1cccs1	47	-34	107	110
CCN(CC)C(=O)CSc1ncc(CO)n1Cc1ccccc1	-9	-18	103	104
CCOC(=O)c1ccccc1NC(=O)c1ccco1	-85	29	100	103
N#CCN(C(=O)CSc1nc2sc3c(c2c(=O)n1Cc1ccco1)CCCC3)c1ccccc1	52	10	107	103
CCOC(=O)c1ccncc1	-7	-11	99	109
O=C(Oc1c(Cl)cc(Cl)c2cccnc12)c1ccco1	-8	-36	98	106
CC1CCC(C(C)C)C(OC(=O)COC(=O)c2ccncc2)C1 (stereo not given)	-17	-18	110	118
CCc1ccc(C#N)cc1	-2	-11	nt	nt
C(=Nc1nc2ccccc2nc1N1CCCC1)N1CCOCC1	-112	-70	101	110
COC(=O)C(C(=O)OC)C1(C)CCC(OC)C1(C)C (stereo not given)	-7	-16	97	105
COc1ccc(C(=O)NC(c2c(C)[nH]n(-c3ccccc3)c2=O)(C(F)(F)F)C(F)(F)F)cc1	-47	2	100	105
Cc1cc(C)cc(NC(=O)C2CCCC2)c1	-5	-10	105	101
O=C(CCCSc1nc2ccccc2[nH]1)NCc1ccco1	-8	-4	106	111
CSc1ccc(C2C(C#N)=C(N)Oc3c2ccc(=O)c2c(C)oc(C)c32)cc1 (stereo not given)	15	3	103	112
CCC1(C)C2CCC1(C)C(NC(=O)c1ccccc1)(C(=O)O)C2 (stereo not given)	10	-23	100	88
CN(C)C(=O)Nc1ccc(Cl)cc1	0	-17	101	106
c1ccc(CCn2c(Cc3cccs3)nc3ccccc32)cc1	3	-27	107	107
CCCCCN1C(C)=CC(=C(C#N)C#N)C=C1C	2	-30	103	95
CC(C)(C)C1(C)OC(CO)C(CO)O1 (stereo not given)	-4	6	100	104
CCOC(=O)c1ccc(N=Cc2nc3ccccc3n2C)cc1	-2	6	101	101
O/N=C(\c1ccccc1)c1nccc2ccccc12	9	6	101	102
O=C(O)CCc1ccc(-c2ccc(F)cc2)[nH]1	nt	-13	107	107
COc1ccccc1OCCn1c(N)nc2ccccc21	-2	-13	98	99
Cn1c(CSCc2nc(-c3ccc(Cl)cc3)cs2)n[nH]c1=S	36	-32	100	95
CC(=O)Nc1ccc(OCCCl)c(OCCCl)c1	-3	nt	101	104
c1ccc2c(c1)SCc1nnc(-c3ccncc3)n1-2	5	-13	101	104
O=C(COc1ccc(F)cc1)Nc1ccc(-n2cnnn2)cc1	nt	-19	103	95
CCc1ccc(-n2cnc3cc(C(=O)NCCc4ccccc4)ccc32)cc1	4	-27	101	99
COc1cccc(OCC(=N)N)c1	-8	-31	101	108
Cn1cccc1P(=Nc1ccccc1)(N1CCOCC1)N1CCOCC1	-2	-22	100	104
N#CCS(=O)(=O)Cc1ccc(C(=O)O)cc1	1	-21	102	98
CCc1ccc(C(=O)CSc2nnc3[nH]c(=O)c(C(C)(C)C)nn23)cc1	29	-1	100	104
CC(C)CC(C(=O)N1CCCc2ccccc21)N1C(=O)c2ccccc2C1=O (stereo not given)	-7	-12	106	110
O=C(O)CCSc1ccccc1Cl	-2	nt	99	95
CC12CCC(=O)N1CCCCN2 (stereo not given)	-7	-70	108	100
CCNC(=O)CCSc1nc2cc(Cl)ccc2o1	-6	16	104	102
Fc1ccccc1C1=CN2CCN=C2S1	-29	-6	98	107
C=CCn1c(NCc2ccccc2)nc2ccccc21	nt	-3	106	112
NS(=O)(=O)c1ccc(N=CC2=C(O)c3ccccc3C2=O)cc1	nt	-13	108	112
Cc1ccc(S(=O)(=O)Nc2ccc3oc(=O)sc3c2)cc1	12	1	101	99
CC(C)(C)N=C(NS(=O)(=O)c1ccc(Br)cc1)c1ccccc1	-12	-7	103	107
COc1cc2c(cc1OC)C(C)N(C(=O)c1ccc(N)cc1)CC2 (stereo not given)	-3	-3	99	99
Cc1cccc(C(=O)NCC(=O)OCc2nc(N)nc(Nc3ccccc3C)n2)c1	-21	-11	103	108
S=C(Nc1ccccc1)Nc1ccccn1	2	-17	105	100
Nc1n[nH]c2cc(=O)[nH]c(O)c12	5	-44	5.0*	26*
O=C(NCC1CCCN2CCCCC12)c1cccc(Br)c1 (stereo not given)	nt	-13	105	111
Cc1ccc2nc(NCC(C)c3ccccc3)c3nnnn3c2c1 (stereo not given)	10	-15	99	118
O=C(CSc1nc2ccccc2o1)N(Cc1cccs1)c1ccc2c(c1)OCCO2	1	-28	112	123
CCN(CC)S(=O)(=O)c1cccc(S(=O)(=O)c2ccc(Cl)c(S(=O)(=O)N(CC)CC)c2)c1	-5	-27	104	101
Cc1cccc(/C=C2/Oc3ccccc3N(CC(=O)N3CCC4(CC3)OCCO4)C2=O)c1	1	-23	103	105
COCc1c(C(=O)Nc2cc(C)cc(C)c2)oc2ccccc12	2	-40	104	107
CCc1cc2[nH]c(C(=O)OC)cc2s1	12	0	105	105
CC(C)(C)C1CCc2onc(C(=O)Nc3cccc(O)c3)c2C1 (stereo not given)	1	-13	103	104

(continued)
SMILES	MbtI inh	Mtb MenB inh	PV pol inh	PV pol inh intensity
COc1ccc(-c2nc3ccsc3c(=O)o2)cc1	nt	-6	103	96
CC1CC(C)CN(C(=O)c2ccc3ncsc3c2)C1 (stereo not given)	3	-32	99	92
N#CC(C(=O)c1cccs1)=C1SCCCS1	-1	-24	104	106
O=C(Nc1cccc(C(F)(F)F)c1)c1cccnc1NCCO	-440	-27	103	104
Cc1nc(CSc2nnc(-c3c[nH]c4ccccc34)o2)cs1	-12	-19	106	109
O=C(Cn1c(=O)sc2ccccc21)Nc1ccc(O)cc1	-6	-7	101	100
CN(Cc1ccccc1)C(=O)COc1ncnc2ccccc12	-2	nt	103	111
O=C(c1cccc(NS(=O)(=O)c2ccc(F)c3ccccc23)c1)N1CCOCC1	-5	-48	102	101
CC1(C)CC(=O)C(C=Nc2ccc(S(=O)(=O)Nc3nccs3)cc2)=C(O)C1	9	-22	102	100
O=c1oc2ccccc2cc1-c1cn2ccccc2n1	nt	7	101	106
Cc1ccc(S(=O)(=O)NCCN=Cc2ccc(N(C)C)cc2)cc1	1	-59	104	103
CCCc1cc(-c2nc(-c3ccc(Br)cc3)cs2)ccn1	78	-27	100	101
O=C1/C(=C/c2cccs2)SC(=S)N1/N=C/c1cccs1	2	-122	103	105
COc1ccc(OC)c(C(O)CNC(=O)CN)c1 (stereo not given)	2&-5	-5&-8	100&98	101&101
COc1ccc(CCNC(=O)CCCc2cn(C)c3ccccc23)cc1OC	-3	10	103	105
COC(=O)C1=CN(c2ccc(F)cc2)C=C(C(=O)OC)C1c1cccs1	nt	-4	105	113
CCc1c(C(=O)OC)nn(-c2ccc(OC)cc2)c(=O)c1C#N	12	-24	99	101
O=C(CN1CC(=O)Nc2ccccc21)NCCc1ccc(Cl)cc1	12	-4	102	98
CCc1ccc(Oc2coc3cc(OC(=O)c4ccco4)ccc3c2=O)cc1	-4	-5	100	102
CN(CCc1ccccn1)C(=O)Nc1cc(Cl)cc(Cl)c1	1	-20	104	103
COC(=O)Cn1c(O)c(N=NC(=O)c2ccc3ccccc3c2O)c2ccccc21	8	14	100	104
O=P(c1ccccc1)(c1ccccc1)C1CCS(=O)(=O)C1 (stereo not given)	-3	-66	104	106
Cc1ccc(NCc2n[nH]c(=S)n2C)cc1Cl	71	-62	100	102
CC1(C)Cc2cccc(OCC(=O)NCc3ccc4c(c3)OCO4)c2O1	-7	-37	105	107
N#CC(C#N)=C(N)/C(C#N)=C/c1ccc(-c2cccc(C(=O)O)c2)o1	nt	-240	124	131
CCNC(=O)C1CCN(c2nc3c(C)cc(C)cc3s2)CC1	-10	-8	103	108
O=C1c2ccccc2C(=O)N1CC1=NCCc2ccccc21	-3	-1	103	102
COC(=O)c1ccccc1S(=O)(=O)NC(=O)Nc1nc(C)c2c(n1)CCS(=O)(=O)C2	8	12	104	105
CC(C)C(=O)NCCc1nc(-c2ccccc2Cl)no1	-6	-24	103	100
O=C(O/N=C/c1ccc(F)c(Cl)c1)C1CC1	6	10	101	103
Cc1ccc(NNC(=S)NC2CCCCC2)cc1	-9	-19	103	99
CN(CC(COc1ccccc1)OC(=O)c1ccc(Cl)cc1)C1=NS(=O)(=O)c2ccccc21 (stereo not given)	nt	-11	108	112
CCCc1nn2c(=O)cc(COc3ccc(C)cc3)nc2s1	0	-17	99	101
COc1ccc(N2CCN(CCNC(=O)c3nnc(Cc4c(F)cccc4Cl)o3)CC2)cc1	-9	-6	106	101
CCN(CC)S(=O)(=O)c1ccc2[nH]c(=O)cc(C(=O)Nc3ccccc3N3CCN(C)CC3)c2c1	10	-27	105	108
COc1cccc(NC(=O)CC2CCCCC2)c1	-13	-13	100	103
Cc1nc(Cl)c(Cc2ccccc2)c(N2CCCC2)n1	5	-2	101	101
Cc1ccc(Nc2nc(Nc3ccc(C)cc3)nc(N3CCCCC3)n2)cc1	-5	4	104	108
CC(C)CC(N)c1ccccc1 (stereo not given)	-8	-31	105	110
O=C(Nc1ccc(Br)cc1F)C1CCCN(S(=O)(=O)N2CCC3(CC2)OCCO3)C1 (stereo not given)	-28	-4	100	102
C=CCN(C#N)c1nc(N(C)C)nc(N(C)C)n1	-3	1	102	107
CN(C)c1ccc(C(=S)N2CCN(c3cccc(Cl)c3)CC2)cc1	38	-18	100	101
Cc1cc(-n2c(C)cc(CNC(C)C(O)c3ccc(O)cc3)c2C)no1 (stereo not given)	-2	-1	107	92
O=C(Nc1nc(-c2cccs2)cs1)C1CC(=O)N(C2CCCC2)C1 (stereo not given)	-4	0	98	105
COC(=O)/C=C/c1cn(-c2ccccc2)nc1-c1ccc(F)cc1	-7	nt	103	107
O=C1c2ccccc2NC2(CCCCC2)N1N=C1CCCCC1	1	-9	99	100
CN1C(C(=O)Nc2ccc(F)cc2F)=CC(c2ccc(F)cc2)=NS1(=O)=O	-2	-13	104	106
O=C(N/N=C/c1cccnc1)C1=NNC(=O)C1CCO (stereo not given)	24	-44	107	100
Cc1ccc(Cl)cc1NC(=O)CSc1nc2c(oc3ccccc32)c(=O)n1C1CCCC1	-11	-14	106	102
O=C1NC(=NCc2ccccc2)S/C1=C\c1ccc(Cl)cc1	-12	nt	104	110
O=C(O)c1cccc(OCc2cn3ccccc3n2)c1	100	-35	105	105
CCCN1CCN(CCCNC(=O)c2cc3c(s2)-c2ccccc2S(=O)(=O)C3)CC1	39	-5	105	106
CCOC(=O)N1CCN(c2c(-c3ccccc3)c3cc(Cl)ccc3[nH]c2=O)CC1	-8	-5	100	101
COc1ccc(OC(=O)C=C(C)C)cc1	-6	3	101	104
Cc1nnc(SCC2=C(C(=O)O)N3C(=O)[C@@H](NC(=O)Cn4cnnn4)[C@H]3SC2)s1	2&-10	-1&-4	101&101	102&103
O=C1C=CC(=O)N1c1ccc(N2CCOCC2)cc1	93*	-42	101	100
O=C(c1ccc(COc2cccc3ccccc23)cc1)N1CCCCC1	0	-13	101	107
C/C(N)=C(/C#N)C(=O)CSc1ncccn1	3	-111	100	102
Cc1c[n+]([O-])n(-c2ccc(C(=O)O)cc2)n1	-1	4	101	105
Cc1ccc(S(=O)(=O)CCSc2nc(C)cc(C)c2C#N)cc1	5	-24	103	102
CSc1nc2nc(C)c(CC(=O)N3CCN(Cc4ccc5c(c4)OCO5)CC3)c(C)n2n1	-29	9	104	108
